fixLJ activator: activators of Burkholderia fixLJ two-component system, primary screen, B. multivorans, GFP reporter. B. multivorans fixK-promoter GFP reporter, 18 h; hits give high values. z-score (test concentration not listed). 29,000 compounds, 0.3% hits;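 active means replicate mean overnight rise in green fluorescent reporter signal, 3 or more SD over negative controls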;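 further: score is relative to vehicle wells of the plate; 300 nL library stock went into each well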
* marks the source's active call; other numbers are inactive results. An excerpt; the hit share may differ from the screen's.

SMILES	fixLJ activator
CCOC(=O)c1c(NC(=O)CCCOc2ccccc2C)sc2c1CCC(C)C2 (stereo not given)	-1.2
COc1ccc(NC(=O)Cn2c(=O)n(CC(=O)NCCc3ccccc3)c(=O)c3ccccc32)cc1	-0.37
COc1ccc(-c2nc3ccccc3o2)cc1NC(=O)Cc1ccc(Cl)cc1	-0.18
O=C(CSc1nc2c(sc3ccccc32)c(=O)n1CCCC(=O)NC1CCCC1)Nc1ccc(F)cc1	0.61
Cc1cc(CC(=O)N2CC3c4ccccc4OC[C@]3(C(=O)O)C2)on1 (stereo not given in full)	-0.9
CCOc1ccc(S(=O)(=O)c2cc3cccc(OCC)c3oc2=O)cc1	0.21
Cc1oc2c(c(C)cc3oc(=O)c(CC(=O)NCCc4ccccc4F)c(C)c32)c1C	-2.7
CCn1c(=O)c(=O)n(CC)c2cc(N3CCCCC3)c(NC(=O)c3cccc(F)c3)cc21	0.36
N#CC1(C(=O)N2CCc3[nH]nc(-c4cccc5ccccc45)c3C2)CC1	0.26
O=C(Nc1ccccc1)c1nc[nH]c1C(=O)O	-1.14
Cc1cccn2c(Nc3ccccc3)c(-c3ccc(N4CCOCC4)cc3)nc12	1.46
CCOc1ccc2nc(N3CCC(C(=O)Nc4c(C)cccc4C)CC3)sc2c1	-0.95
CCN(CC)C(=O)N1CCN(C)CC1	-0.93
O=C1N(CCCc2ccccc2)CCCC1(O)CNCC1CC1 (stereo not given)	0.22
CCN(C(=O)c1c(C)n(C)c2ccc(OC)cc12)C1COCC1O (stereo not given)	-1.61
Cc1ccc(NS(=O)(=O)c2ccc3c(c2)CC(=O)N3)cc1Cl	1.26
COc1ccc(NC(=O)C(=O)NCCc2ccccc2)cc1OC	-1.62
COc1ccccc1NC(=O)c1oc2ccccc2c1NC(=O)COc1cccc(C)c1	1.05
COc1cccc(C(=O)N2CCC(C)(C#N)CC2)c1OCCCN	-0.09
Cc1ccc(NC(=O)Cn2c(=O)n(CCCC(=O)NCc3ccc4c(c3)OCO4)c(=O)c3ccccc32)cc1	-0.83
COC(=O)c1cc2oc3ccccc3c2n1Cc1c(C)cc(C)cc1C	0.78
CCN1Cc2nc(OC)c(CNC(=O)CCc3nc(-c4ccco4)no3)cc2C1=O	0.8
Cn1nc2n(c1=O)CC(c1nc(-c3ccccc3)nn1CCO)CC2 (stereo not given)	-0.1
Cc1cccc(N2CCN(C(=O)c3ccc4c(Cl)c5c(nc4c3)CCCC5)CC2C)c1 (stereo not given)	0.58
Cc1cc(CC(=O)N2CCCN(CC(=O)Nc3ccn(C)n3)CC2)on1	-1.69
CN(C)c1nc(-c2ccncc2)nc2c1CCN(C(=O)C1(C)CC1)C2	-0.09
CCc1nn2c(=O)c(S(=O)(=O)Nc3ccc(C)c(C)c3)c(C)nc2s1	-0.25
COc1ccc(-n2nnnc2C2CCN(S(=O)(=O)c3cccc(C(F)(F)F)c3)CC2)cc1	-0.67
Cc1ccnc(N2CCC(N3CCCC(C(=O)N4CCCC4)C3)CC2)n1 (stereo not given)	-1.04
CCOC(=O)C1=C(CS(=O)(=O)c2ccc(C)c(C)c2)NC(=O)NC1c1ccccc1OCC (stereo not given)	0.73
CN(C)c1ccc(Nc2nc3ccccc3n3nnnc23)cc1	0.14
CC(=O)Nc1ccc(NC(=O)CCc2c(C)nc3c(c(C)nn3-c3ccccc3)c2C)cc1	1.73
CCCc1nc(C)c(CNC(=O)C2CC(=O)N(C(C)C)C2)s1 (stereo not given)	-0.4
Clc1cccc(-c2nc3ccccn3c2Nc2ccc3c(c2)OCCO3)c1	1.5
CC(C)(C)CCN1CCCn2nc(CNC(=O)C3CCC3)cc2C1	2.22
O=C(NC1CCCCCC1)c1ccc(CS(=O)c2ccc(Br)cc2)o1 (stereo not given)	-1.34
CC(=O)c1cccc(NC(=O)C(CC(C)C)NS(=O)(=O)c2ccc3c(c2)CCN3C(C)=O)c1 (stereo not given)	-1.77
Cc1cccc(CSc2nc3ccncc3n2CC(=O)N(C)C2CCCCC2)c1	-1.55
COc1cc2[nH]c(=O)n(Cc3ccc(C(=O)NCc4ccccc4)cc3)c(=O)c2cc1OC	-0.59
CC(=O)c1ccc(NC(=O)Cn2nc(C(F)(F)F)c3c2CCCC3)cc1	-1.43
Cc1ccccc1Cn1c2ccccc2c2cnn(CC(=O)NCCCc3ccccc3)c(=O)c21	-1.59
CN(C)C(=O)CN1CC2CCC(C1)N(C(=O)c1ccc(CO)o1)C2 (stereo not given)	0.43
O=C(Nc1ccc2oc(-c3cccnc3)nc2c1)c1ccc(Br)cc1	-0.8
O=C(CC1CCCC1)N1CCCN(CCC2CCS(=O)(=O)C2)CC1 (stereo not given)	-2.03
Cc1ccc(-n2c(Cc3ccccc3)nnc2SCc2nc(-c3cccs3)no2)cc1	-0.93
COc1ccc(C(NC(=O)CN2CCCCCCC2)C2CC(O)C2)cn1 (stereo not given)	-0.87
Cc1ccc2c(CC(=O)Nc3cccc(C(F)(F)F)c3)coc2c1	-3.14
CCC(=O)Oc1ccc(/C=C(\C#N)c2nc3ccccc3[nH]2)cc1OC	-1.98
Cc1cnc(NC(=O)C2=C(O)c3ccccc3S(=O)(=O)N2C)s1	-1.85
COC(=O)c1sc(-c2ccccc2)cc1NC(=O)Nc1ccc(Cl)cc1	-0.96
Cc1ccc2[nH]c(=O)c3cc(C(=O)N(C)c4ccc(Br)cc4)sc3c2c1	0.14
COc1ccc(NC(=O)CN2C(=O)C(C)N=C(c3ccccc3)c3ccccc32)cc1OC (stereo not given)	0.86
Cc1ccc(C(=O)/C=C/c2cn(CC(O)CN3CCc4ccccc43)c3ccccc23)cc1 (stereo not given)	-0.55
COC(=O)c1[nH]ncc1CN1CCn2nc(CCC(=O)NC3CC3)cc2C1	-1.28
CCc1ccc(NC(=O)C(NS(=O)(=O)c2cccs2)C(C)C)cc1 (stereo not given)	-0.12
N#Cc1ccccc1CSc1nnc(-c2ccccc2)o1	-2.63
COc1ccc(-c2nc3ccccc3n3c(-c4ccc(OC)cc4)c4c(=O)n(C)c(=O)n(C)c4c23)cc1	-0.48
Cc1ccc(NC(=O)Cn2cc3c(n2)CCCC3)cc1Cl	-2.3
CCOc1ccc(C(=O)Nc2c(C(=O)c3ccccc3)oc3ccccc23)cc1	-0.18
COc1ccccc1-c1ccnc2c(-c3ccc(Br)cc3)c(C)nn12	0.2

Two entries from above, as labelled records:
COC(=O)c1sc(-c2ccccc2)cc1NC(=O)Nc1ccc(Cl)cc1
  fixLJ activator: -0.96
Cc1ccc2[nH]c(=O)c3cc(C(=O)N(C)c4ccc(Br)cc4)sc3c2c1
  fixLJ activator: 0.14

Next section.
SMILES	fixLJ activator
CCn1cc(-c2c(C#N)c(N)nc3c2CCc2c(O)cccc2-3)cn1	0.07
Cc1ccc(NC(=O)Cn2c(=O)n(Cc3ccco3)c(=O)c3sc4ccccc4c32)cc1C	-0.32
CCc1ccc2occ(CC(=O)Nc3c(C(=O)c4ccc(F)cc4)oc4ccccc34)c2c1	-1.45
COc1cccc(C(=O)NCCSc2c(-c3ccc(F)cc3)[nH]c3ccccc23)c1OC	1.82
CCCN1C(=O)C2(c3ccccc31)c1c(oc3cc(C)c(C)cc3c1=O)C(=O)N2CCCOC (stereo not given)	-1.44
O=C(C1CCC1)N1CCC(NC2COCC2Cc2ccncc2)CC1 (stereo not given)	0.01
Cc1ccc2ncc(C(=O)NCCc3ccc(S(N)(=O)=O)cc3)c(=O)n2c1	0.77
CCCC1=Nc2cc(C(=O)NCCc3ccc(OC)cc3OC)ccc2Sc2ccccc21	1.31
COC(=O)c1c(NC(=O)Cc2coc3ccc(C(C)C)cc23)sc2c1CCC2	0.54
O=C(CO)N1CCOc2c(O)cc(-c3csc4ccccc34)cc2C1	-0.33
COC(=O)C(CCSC)NC(=O)c1cc2c(n(-c3ccccc3)c1=O)CC(C)(C)CC2=O (stereo not given)	-0.08
Cc1cc(CC(=O)N(C)Cc2nc3cc(C)c(C)cc3[nH]2)on1	-1.43
CC1CCc2c(sc(NC(=O)COc3ccccc3)c2C(=O)Nc2ccccc2Cl)C1 (stereo not given)	1
Cc1ccc(NC(CNS(=O)(=O)c2ccc(Cl)cc2)c2ccccc2)cc1 (stereo not given)	-0.49
Cc1ccc(C)c(Cn2c3ccccc3c3cnn(CC(=O)NCC(C)c4ccccc4)c(=O)c32)c1 (stereo not given)	0.29
CO/N=C1\CN(c2nc3c(cc2F)c(=O)c(C(=O)O)cn3C2CC2)CC1CN (stereo not given)	-0.38
O=C(CNc1cccnc1)N(Cc1ccncc1)CC1CCCO1 (stereo not given)	-0.59
Cc1ccc(CSc2nc(-c3cccs3)ccc2C#N)cc1	-2.75
COc1cccc(NC(=O)c2oc3ccccc3c2NC(=O)C23CC4CC(CC(C4)C2)C3)c1	-1.11
Cc1ccc(-c2csc(-c3nc(-c4ccc(Br)s4)cs3)n2)cc1	-1.08
COc1ccccc1CNC(=O)CCCCn1c(=O)c2ccccc2n(CC(=O)Nc2cccc(Cl)c2)c1=O	-0.27
Cc1ccc(NC(=O)C(Cc2ccccc2)NS(=O)(=O)c2cccs2)cc1Cl (stereo not given)	-2.23
COc1ccccc1CNC(=O)c1ccc2c(c1)N(Cc1cccc(C)c1)C(=O)c1ccccc1S2(=O)=O	-0.24
Cc1ncc(C(=O)NC2COCC2Cc2ccnc3ccccc23)c(=O)[nH]1 (stereo not given)	0.61
O=C1C2=C(Nc3ccccc3SC2c2ccccc2C(F)(F)F)c2ccccc21 (stereo not given)	1.82
COc1cc(NC(=O)C2CCCN(S(=O)(=O)c3ccc4c(c3)oc(=O)n4C)C2)c(C(=O)O)cc1OC (stereo not given)	-1.92
COc1ccccc1NC(=O)c1c(NC(=O)c2cccs2)sc2c1CCC(C(C)(C)C)C2 (stereo not given)	-0.41
COc1ccc2c(c1)CCc1c(C(=O)Nc3c(C)nn(Cc4ccc(C)cc4)c3C)noc1-2	0.09
COc1ccccc1NC(=O)Cn1c(=O)n(-c2ccccc2Cl)c(=O)c2sc3ccccc3c21	0.41
CC(C)CNC(=O)c1cc2c(s1)CCOC21CCN(c2ccccn2)CC1	-0.6
COc1cccc(CNC(=O)Cc2c(C)c3c(cc(C)c4c(C)coc43)oc2=O)c1	-2.55
Cc1ccc(C(=O)Nc2cc(-c3nc4ncccc4o3)ccc2C)c(C)c1	0.36
Cc1ccc(NC(=O)Cn2c(=O)oc3cc(S(=O)(=O)N4CCCCC4)ccc32)c(Cl)c1	-0.11
Cc1cc(O)c2c(C)c(CC(=O)N3CCCCC3)c(=O)oc2c1	-1.7
Cc1noc(CN2CC(O)C(Cc3ccnc4ccccc34)C2)n1 (stereo not given)	-0.82
Cc1ccc(NC(=O)N2CCN(C)c3ncccc32)cc1C	-0.5
COc1ccc(NC(=O)CCCSc2nc(-c3ccco3)cc(C(F)(F)F)n2)c(OC)c1	-1.62
CCN(C(=O)C(NS(=O)(=O)c1ccc(Br)s1)c1ccccc1)c1ccc(C)c(C)c1 (stereo not given)	1.55
CC(=O)Nc1ccc(S(=O)(=O)N(Cc2ccccc2)Cc2ccccc2)cc1	0.8
CCOC(=O)N1CCN(C(=O)CN(c2cccc(Cl)c2)S(=O)(=O)c2ccccc2)CC1	-2.18
CCc1nc(CCNC(=O)N(C)Cc2ccc3nsnc3c2)cs1	-0.11
OC1CCCCC1N1CCC(c2ccccc2)CC1 (stereo not given)	0.18
NS(=O)(=O)CC1CCN(C(=O)NCCCn2ncc3ccccc32)C1 (stereo not given)	0.38
OCc1ccccc1O[C@@H]1O[C@H](CO)[C@@H](O)[C@H](O)[C@H]1O	-1.43
CNC(=O)c1noc(CNCc2cc(=O)c3c(C)ccc(C)c3[nH]2)n1	-0.71

Reformatted: results already given.
| SMILES | fixLJ activator |
| --- | --- |
| Cc1ccc(C(=O)Nc2cc(-c3nc4ncccc4o3)ccc2C)c(C)c1 | 0.36 |
| Cc1ccc(NC(=O)Cn2c(=O)oc3cc(S(=O)(=O)N4CCCCC4)ccc32)c(Cl)c1 | -0.11 |
| Cc1cc(O)c2c(C)c(CC(=O)N3CCCCC3)c(=O)oc2c1 | -1.7 |
| Cc1noc(CN2CC(O)C(Cc3ccnc4ccccc34)C2)n1 (stereo not given) | -0.82 |
| Cc1ccc(NC(=O)N2CCN(C)c3ncccc32)cc1C | -0.5 |
| COc1ccc(NC(=O)CCCSc2nc(-c3ccco3)cc(C(F)(F)F)n2)c(OC)c1 | -1.62 |
| CCN(C(=O)C(NS(=O)(=O)c1ccc(Br)s1)c1ccccc1)c1ccc(C)c(C)c1 (stereo not given) | 1.55 |
| CC(=O)Nc1ccc(S(=O)(=O)N(Cc2ccccc2)Cc2ccccc2)cc1 | 0.8 |
| CCOC(=O)N1CCN(C(=O)CN(c2cccc(Cl)c2)S(=O)(=O)c2ccccc2)CC1 | -2.18 |
| CCc1nc(CCNC(=O)N(C)Cc2ccc3nsnc3c2)cs1 | -0.11 |
| OC1CCCCC1N1CCC(c2ccccc2)CC1 (stereo not given) | 0.18 |
| NS(=O)(=O)CC1CCN(C(=O)NCCCn2ncc3ccccc32)C1 (stereo not given) | 0.38 |
| OCc1ccccc1O[C@@H]1O[C@H](CO)[C@@H](O)[C@H](O)[C@H]1O | -1.43 |
| CNC(=O)c1noc(CNCc2cc(=O)c3c(C)ccc(C)c3[nH]2)n1 | -0.71 |

(continued)
SMILES	fixLJ activator
Cc1cc(OCC(O)CN2CCN(c3cccc(Cl)c3)CC2)ccc1Cl (stereo not given)	-0.38
Cc1ccc(NC(=O)Cn2c(SCc3cccc(F)c3)nc3ccncc32)c(C)c1	-1.09
CCOC(=O)c1[nH]c2ccccc2c1NC(=O)c1c(F)cccc1F	0.42
COc1ccc2c(c1)CCOC21CCN(C(=O)CNC(C)=O)CC1	0.1
CCC(=O)N1CCc2cc(Br)cc(S(=O)(=O)CCC(=O)Nc3ccc(CC)cc3)c21	0.24
CNc1ncccc1C(=O)N1CCC2(CC1)OCCc1sc(C(=O)O)cc12	-0.87
CCc1nn(CC(=O)N(CC)Cc2ccccc2)c(=O)c2cc3occc3n12	0.02
COc1cc2c(C(=O)N3CCN(c4cc(Cl)ccc4C)CC3)cn(CC(C)C)c(=O)c2cc1OC	-1.33
Cc1cnn(CCC(=O)N2CCCN(C(=O)C=Cc3ccccc3)CC2)c1	-0.75
OC[C@H]1OC([S-])[C@H](O)[C@@H](O)[C@@H]1O.[Au+] (stereo not given in full)	-2.98
